High-throughput results: PubChem, several laboratories
HNF4A DNA FP = change in binding of human HNF4 alpha to DNA | HNF4a-FITC DNA binding, fluorescence polarization, 1 h | activity change, % at 10 µM | actives 0.3% (n = 360,000) | AID 1224865; in the data active = activity change above about 30%, passing the limit was not always enough;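 also: controls were the assay level and a saturating level of protein; the project sought stronger binding though the title names inhibitors; some compounds called inactive have numbers as strong as hits; positive values seem to mean higher polarization but the record does not say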
Vif TR-FRET = HIV-1 Vif–A3G interaction blockers – biochemical, TR-FRET, GST-Vif 1-94, biotin-A3G peptide, dose response retest, primary screen (AID 1117319) | inhibition, %; hits with a dose series show IC50 in µM | TR-FRET GST-Vif / biotin-A3G peptide binding; higher % means a stronger effect; test concentration not given here; strong numbers were not always called active | actives 0.57% (n = 260,000);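 active = above the screen mean plus three standard deviations and confirmed in dose response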;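 also: Vif residues 1-94 fused to GST binding biotinylated APOBEC3G peptide 110-148; 0% = full assay without inhibitor and 100% = GST in place of GST-Vif; retest series ran down from 100 µM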
AF4-AF9 inh = MLL-AF4/AF9 protein interaction inhibition; P42568; AlphaScreen, biotin-AF4 peptide binding to FLAG-AF9; inhibition, % at 10 µM; actives 0.47% (n = 350,000);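 active = every replicate reaching a set inhibition limit, whatever the replicate mean, cut at about 25% in these data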;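 also: 0% = plate neutral control median and 100% = total signal loss; the record names both 10 and 1 µM as test concentration; the first replicate is given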
Target sequence (P42568 whole entry, looked up): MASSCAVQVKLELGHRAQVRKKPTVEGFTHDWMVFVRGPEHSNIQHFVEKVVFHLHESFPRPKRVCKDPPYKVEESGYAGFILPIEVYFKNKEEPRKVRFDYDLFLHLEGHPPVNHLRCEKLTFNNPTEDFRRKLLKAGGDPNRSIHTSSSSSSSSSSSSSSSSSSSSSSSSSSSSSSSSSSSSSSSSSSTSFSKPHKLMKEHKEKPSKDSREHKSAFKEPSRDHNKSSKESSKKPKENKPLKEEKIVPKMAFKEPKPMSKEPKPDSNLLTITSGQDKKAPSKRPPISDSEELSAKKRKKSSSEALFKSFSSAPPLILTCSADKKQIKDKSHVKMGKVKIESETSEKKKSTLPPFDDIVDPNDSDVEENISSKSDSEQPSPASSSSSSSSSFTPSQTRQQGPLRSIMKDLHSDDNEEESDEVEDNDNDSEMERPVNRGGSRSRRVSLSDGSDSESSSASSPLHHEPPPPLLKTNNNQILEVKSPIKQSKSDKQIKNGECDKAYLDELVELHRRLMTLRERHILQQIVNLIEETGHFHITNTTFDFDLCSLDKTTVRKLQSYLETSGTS
ALR H2O2 inh = blocks human ALR sulfhydryl oxidase activity; AID 485317; actives 3.8% (n = 290,000); purified ALR, DTT oxidation, H2O2 HRP-luminol luminescence; inhibition, % (concentration not given with the values);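 active = mean and each replicate at 75% or more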;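 also: stock transfer was 7.5 nL into about 7.5 µL; 0% = neutral wells and 100% = wells with inactivated enzyme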
Target sequence (P55789 whole entry, looked up): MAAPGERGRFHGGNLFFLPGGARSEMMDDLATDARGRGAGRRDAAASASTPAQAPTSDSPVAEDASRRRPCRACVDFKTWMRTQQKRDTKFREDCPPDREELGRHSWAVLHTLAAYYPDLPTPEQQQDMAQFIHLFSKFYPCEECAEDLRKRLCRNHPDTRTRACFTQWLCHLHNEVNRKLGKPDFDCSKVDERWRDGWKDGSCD
rRNA inh HTS = inhibitors of bacterial rRNA selective over humanized ribosomes. AID 720706. actives 1.6% (n = 350,000). GFP signal change (wild-type ribosome), % (no concentration beside the values). E. coli WT GFP vs humanized-ribosome RFP mutants, fluorescence, 24 h; hits give low values; DMSO median 0, no signal -100;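 active = significant combined selectivity score with lowered wild-type GFP, culture density cut under 30%, mutant RFP and density less affected; inactive = any of these conditions unmet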; also: one replicate is shown; some compounds called inactive have numbers as strong as hits
FGF22 binding = binders of recombinant human FGF22 by thermal shift; actives 1.5% (n = 340,000); calls only at 9.99 µM; Q9HCT0; SYPRO orange fluorescence; percent of sucrose octasulfate shift, DMSO zero;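 active = melting point raised past a set limit in the mean and every replicate; three in four hits are not shown here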
Target sequence (Q9HCT0 whole entry, looked up): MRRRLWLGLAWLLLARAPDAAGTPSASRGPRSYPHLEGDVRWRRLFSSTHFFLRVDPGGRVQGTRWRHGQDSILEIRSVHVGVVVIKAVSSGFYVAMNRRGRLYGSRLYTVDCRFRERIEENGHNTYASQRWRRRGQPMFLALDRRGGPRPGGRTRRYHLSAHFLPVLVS
Ecoli growth = inhibitors of Escherichia coli growth. OD600, 23 h; hits give low values. OD600 absorbance (no concentration beside the values). actives 0.21% (n = 330,000);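 active = OD600 absorbance below the run mean of sample wells minus 3.6 SD, in any replicate, cut at about 0.56 in these data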;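 also: stock transfer was 300 nL into about 60 µL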
rRNA inh HTS OD600 = also measured in rRNA inh HTS; calls as there; OD600 change, %; measured here: OD600 growth;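 optical density of the mix in the first replicate; 0 = DMSO median and -100 = no signal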
rRNA inh HTS RFP = recorded beside rRNA inh HTS, whose call it bears; RFP signal change, %; measured here: RFP humanized mutant strains;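 first replicate; 0 = DMSO median and -100 = no signal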
An asterisk follows results filed as active; i = inactive; · = no result given; + = active, no number; & = joins results of further samples. Some of the compounds tested; the hit share may differ from the screen's.

SMILES	HNF4A DNA FP	Vif TR-FRET	AF4-AF9 inh	ALR H2O2 inh	rRNA inh HTS	rRNA inh HTS OD600	rRNA inh HTS RFP	FGF22 binding	Ecoli growth
CCCNC(=O)N1CC2(C1)[C@H](c1ccccc1)[C@H](CO)N2Cc1cccc(Cl)c1	·	·	2.5	·	-5.8	-16.1	3.4	i	·
CO[C@H]1CN(C)C(=O)c2ccc(NC(=O)C3CC3)cc2OC[C@@H](C)N(Cc2ccc(F)cc2)C[C@@H]1C	·	·	2.4	·	-3.1	-19.9	4.2	i	·
CCn1c2ccccc2c2cc(N=C3SC(CC(=O)Nc4ccccc4OC)C(=O)N3C)ccc21 (configuration not stated)	-0.3	-7.5%	·	12.0	·	·	·	·	0.761
COc1cccc2sc(N(CCCN(C)C)C(=O)c3sc4ccccc4c3Cl)nc12	-1.0	·	27.9*	-17.1	-43.3*	-23.1*	-9.9*	i	0.699
c1ccc(Cc2nnc3sc(-c4ccc5c(c4)OCCO5)nn23)cc1	2.4	2.9%	-0.7	-7.6	-28.0	-48.5	-5.5	i	0.771
NS(=O)(=O)c1ccc(NC(=O)CCC(=O)c2cccs2)cc1	2.1	-3.7%	-0.1	-9.2	8.9	4.4	1.2	i	0.616
O=C(COC(=O)c1cccnc1)Nc1ccccc1	1.9	-0.6%	·	3.2	·	·	·	·	0.722
O=C(C[C@H]1CC[C@H](NC(=O)c2ccc3c(c2)OCO3)[C@@H](CO)O1)NCc1ccc(F)cc1	·	·	2.9	·	-0.9	-6.9	-4.1	i	·
Cc1ccc2c(c1)C1CC(C)(O2)N(c2cccc(C(=O)NCc3ccccn3)c2)C(=O)N1 (configuration not stated)	-4.9	·	-1.7	5.0	3.2	4.3	1.9	i	0.658
CCN(CC)S(=O)(=O)c1ccc(Nc2ccc(-c3ccc4c(c3)OCCO4)nn2)cc1	0.6	-1.2%	·	·	·	·	·	·	0.719
Cc1noc(C)c1NC(=O)Nc1ccc2c(c1)CC(=O)N([C@H](C)CO)C[C@H](C)[C@@H](CN(C)C(=O)Nc1ccccc1)O2	·	·	-2.5	·	-0.8	-0.1	4.0	i	·
Cc1ccc(C)c(NC(=O)C(Sc2nc3ccccc3c(=O)n2CC(C)C)c2ccccc2)c1 (configuration not stated)	2.1	-3.2%	·	1.2	·	·	·	·	0.71

Copied from the results shown (2 entries):
SMILES	HNF4A DNA FP	Vif TR-FRET	AF4-AF9 inh	ALR H2O2 inh	rRNA inh HTS	rRNA inh HTS OD600	rRNA inh HTS RFP	FGF22 binding	Ecoli growth
Cc1noc(C)c1NC(=O)Nc1ccc2c(c1)CC(=O)N([C@H](C)CO)C[C@H](C)[C@@H](CN(C)C(=O)Nc1ccccc1)O2	·	·	-2.5	·	-0.8	-0.1	4.0	i	·
Cc1ccc(C)c(NC(=O)C(Sc2nc3ccccc3c(=O)n2CC(C)C)c2ccccc2)c1 (configuration not stated)	2.1	-3.2%	·	1.2	·	·	·	·	0.71

Further structures
SMILES	HNF4A DNA FP	Vif TR-FRET	AF4-AF9 inh	ALR H2O2 inh	rRNA inh HTS	rRNA inh HTS OD600	rRNA inh HTS RFP	FGF22 binding	Ecoli growth
N#Cc1c(-c2ccco2)nc(SCC(=O)Nc2ccc(S(N)(=O)=O)cc2)[nH]c1=O	·	1.6%	·	-9.8	·	·	·	·	0.633
COc1cccc(NC(=O)CN(C)C(=O)c2cc3c(s2)CCC(C)C3)c1 (configuration not stated)	3.8	2.4%	-27.4	1.0	-8.5	-42.7	19.0	i	0.624
Cc1nnc(SC(C)C(=O)Nc2sc3c(c2C#N)CCCC3)[nH]c1=O (configuration not stated)	4.0	·	-3.8	20.6	-22.5	-45.9	-4.9	i	0.7
Oc1cc(Cc2ccccc2)cnc1CN1CCCCC1	0.0	-2.7%	·	2.7	·	·	·	·	0.738
C[C@@H]1CN([C@H](C)CO)S(=O)(=O)c2ccc(C3=CCCC3)cc2O[C@H]1CN(C)Cc1cccnc1	·	·	2.4	·	-46.9	-61.8	-3.7	i	·
COc1ccc(NC(=O)Nc2ccc3c(c2)C(=O)N([C@H](C)CO)C[C@@H](C)[C@H](CN(C)CC2CC2)OCCCC[C@H](C)O3)cc1	·	·	19.6	·	3.3	4.1	1.1	i	·
Oc1c(C(c2ccco2)N2CCOCC2)sc2ncnn12 (configuration not stated)	1.5	31.4%	-5.8	-2.2	-2.2	16.9	13.8	i	0.756
CCC(=O)N1CC[C@H]2[C@@H]1c1cc(-c3ccc(OC)cc3)ccc1N(C)[C@H]2CO	·	·	-1.1	·	0.1	-6.7	-2.9	i	·
O=C(N/N=C/c1ccc(Cl)c(Cl)c1)c1ccc2nc[nH]c2c1	5.7	·	-2.2	·	-39.2	-33.1	-2.7	+	·
Cc1ccccc1C(=O)Nc1nnc(SCC(=O)NCc2ccco2)s1	2.9	2.7%	-3.3	-1.5	1.9	3.8	-2.5	i	0.71
CCCN(C)C[C@H]1Oc2cc(-c3ccccc3C)ccc2S(=O)(=O)N([C@H](C)CO)C[C@H]1C	·	·	4.2	·	-1.0	6.7	2.4	i	·
O=C(Cn1nc(-c2ccccc2)c2ccccc2c1=O)NCC1CCCO1 (configuration not stated)	-0.7	-0.6%	·	-0.9	·	·	·	·	0.749
COc1ccc(NC(=O)C(=O)NCCN2CCN(C(=O)c3ccco3)CC2)cc1	0.7	24.0%	-4.2	-2.6	9.5	10.5	2.5	i	0.685
Cc1cc(-c2nnc3n2N=C(c2ccccc2Br)CS3)n[nH]1	3.6	7.6%	-1.7	-10.9	-20.8	-26.2	-3.4	i	0.675
O=C(C[C@@H]1C=C[C@H](NC(=O)C2CC2)[C@@H](CO)O1)NCC1CC1	·	·	-2.0	·	1.4	3.9	-2.5	i	·
CC1CCCCN1CCCNc1ccc(C(CC(N)=O)NC(=O)Cc2cccc3ccccc23)cc1[N+](=O)[O-] (configuration not stated)	-2.1	·	3.4	-12.3	-0.9	4.8	-0.9	i	0.647
COc1ccccc1Cc1c(C2CCCCC2)nc2ccc(Br)cn12	-7.1	·	7.1	·	-29.5	-50.6	-9.0	i	·
CC(C)NC(=O)N(C)C[C@@H]1Oc2ccc(NC(=O)C3CCCCC3)cc2CC(=O)N([C@@H](C)CO)C[C@@H]1C	·	·	-3.5	·	0.7	1.6	-0.7	i	·
O=C(O)C12CC3CC(C1)CC(n1cnc(Cl)n1)(C3)C2	-0.5	23.7%	·	-7.1	·	·	·	·	0.737
COc1ccc(N2C(=O)CC(C#N)=C2N)cc1	-0.1	-0.5%	-1.5	5.8	8.4	11.6	0.4	i	0.657
COc1ccc(NC(=O)CN(C)C(=O)c2ccc(NS(=O)(=O)c3cccc([N+](=O)[O-])c3)cc2)cc1	-2.6	0.3%	0.4	-0.3	-2.1	1.9	-1.6	i	0.641
COc1cc(OC)nc(NC2OC(=O)c3ccccc32)n1 (configuration not stated)	-3.7	-4.2%&-2.6%	·	5.6	·	·	·	·	0.721
Cc1ccc(OCc2cccc(S(=O)(=O)N(C)C)c2)c([N+](=O)[O-])n1	-2.1	·	0.4	-2.1	-3.3	1.6	-1.1	i	·
O=C(NCc1cccnc1)C(=O)NCC1OCCCN1S(=O)(=O)c1cc(F)ccc1F (configuration not stated)	1.3	-0.3%	-2.1	·	2.0	-3.5	-4.0	i	·
C=CCNC(=S)Nc1cc(Cl)ccc1OC	0.1	-3.3%	·	-0.8	·	·	·	·	0.722
Cc1cccc(-c2c3c(=O)n(C)c(=O)n(C)c3cn2-c2ccc(O)cc2)c1	2.0	-0.9%	·	95.2*	·	·	·	·	0.692
S=C1NCN(Cc2cccnc2)CN1	1.2	6.6%	1.4	·	·	·	·	i	0.689
O=C(Nc1ccc(-c2ccccc2)cc1)[C@H]1[C@H](CO)[C@H]2Cn3c(cccc3=O)[C@H]2N1CC1CCCCC1	·	·	0.0	·	1.6	-2.8	4.2	i	·
CN(C)c1ccc(NC(=O)Nc2cccc3ccccc23)cc1	-1.0	17.3%	1.9	0.3	3.5	5.2	2.4	i	0.702
O=C(c1ccc2c(=O)n3c(nc2c1)CCCCC3)N1CCCCC1	-0.8	·	-0.4	3.6	2.9	7.9	0.0	i	0.687
COc1ccccc1N1CCN(C(=O)c2ccc(CN3CCc4ccccc4C3)cc2)CC1	0.5	18.4%	·	9.6	·	·	·	·	0.689
COc1cc(C(=O)NCC(=O)N2CC=C(c3ccccc3)CC2)cc(OC)c1OC	-1.5	7.5%	-1.8	3.4	-28.4*	-22.0*	0.0*	i	0.686
CN(C)C(CNC(=O)c1ccc(C2SCCS2)cc1)c1ccccc1 (configuration not stated)	3.4	·	5.5	19.5	-0.2	0.8	0.4	i	0.61
CO/N=C/C(C#N)c1ncc(C(F)(F)F)cc1Cl (configuration not stated)	3.0	-2.4%	9.1	-0.4	11.8	18.9	-2.4	i	·
Cc1cc(C)n(-c2ccc(C(=O)Nc3cc(C(F)(F)F)ccc3N3CCOCC3)cc2)n1	-2.0	-0.1%	·	·	·	·	·	·	0.695
COc1ccc(OCc2ccc(/C=N\NC(=O)c3sccc3C)o2)cc1	-3.2	·	-3.4	-7.6	4.3	8.8	-1.4	i	·
COc1cccc(NC(=O)C2(C)CCN2Cc2ccc(OC(C)C)cc2)c1 (configuration not stated)	-4.6	·	-4.2	·	-24.7	-55.7	2.9	i	·
CO[C@@H]1CN(C)C(=O)c2ccc(NC(=O)C3CCCCC3)cc2OC[C@H](C)N(C)C[C@@H]1C	·	·	-0.4	·	2.6	3.8	-2.6	i	·
COC(=O)CCCCCCCC(=O)Nc1nnc(C(F)(F)F)s1	2.4	·	5.1	-5.9	5.5	-5.0	0.0	i	0.685
CCOC(=O)CC1C(=O)NCCN1C(=S)Nc1ccccc1 (configuration not stated)	-0.4	-6.3%	·	-1.4	·	·	·	·	0.686
O=C(NCCc1ccccc1)c1ccc2[nH]c(=O)c(=O)[nH]c2c1	2.0	·	-2.6	-1.2	11.6	10.6	3.4	i	0.697
COc1ccc(S(=O)(=O)N(C)C[C@H]2Oc3ccc(N(C)C)cc3CC(=O)N([C@H](C)CO)C[C@H]2C)cc1	·	·	3.6	·	-2.3	-2.0	0.1	i	·
Cc1nn(Cc2ccccc2)c(C)c1NC(=O)CCCn1nc(C)c([N+](=O)[O-])c1C	2.2	·	·	-2.2	·	·	·	·	0.707
COc1cc(S(=O)(=O)Nc2cccc3cn[nH]c23)c(OC)cc1Cl	-0.4	·	0.4	-36.7	-6.6	-13.1	2.8	i	0.674
O=C(CCc1ccccc1)Nc1nc2n(n1)C(c1ccccc1)CC(=O)N2 (configuration not stated)	0.9	-7.3%	·	-5.2	10.2	6.9	-0.3	·	0.71
COc1cc(OC)c2c(O)c3c(c(-c4c5c(c(O)c6c(OC)cc(OC)cc46)CO[C@@H](C)[C@H]5O)c2c1)[C@H](O)[C@H](C)OC3	4.6	4.61µM*	·	36.8	·	·	·	·	0.674
CS(=O)(=O)N1CCC(C(=O)Nc2cccc(F)c2)CC1	1.0	·	-10.3	-3.4	4.8	8.8	3.1	i	0.67
CN1CCN(S(=O)(=O)c2ccc(-c3ccc(Cl)cc3)cc2)CC1	-0.5	26.2%	·	-7.9	·	·	·	·	0.642
CC(=O)Oc1ccc2c(c1)cc(C)n2C	0.1	7.5%	·	-13.1	·	·	·	·	0.654

Whole records, quoted from the list. Screens in order: HNF4A DNA FP, Vif TR-FRET, AF4-AF9 inh, ALR H2O2 inh, rRNA inh HTS, rRNA inh HTS OD600, rRNA inh HTS RFP, FGF22 binding, Ecoli growth
Shown for O=C(NCCc1ccccc1)c1ccc2[nH]c(=O)c(=O)[nH]c2c1 → 2.0, ·, -2.6, -1.2, 11.6, 10.6, 3.4, i, 0.697
Shown for CCOC(=O)CC1C(=O)NCCN1C(=S)Nc1ccccc1 (configuration not stated) → -0.4, -6.3%, ·, -1.4, ·, ·, ·, ·, 0.686
